Source: PubChem BioAssay (National Center for Advancing Translational Sciences (NCATS))
Sfp PPTase inh: qHTS Assay for Inhibitors of Bacillus subtilis Sfp phosphopantetheinyl transferase (PPTase); 4'-phosphopantetheinyl transferase ffp (Bacillus subtilis), Q9F4F7; Biochemical Sfp PPTase activity, qHTS; Potency, µM, for inactives: max response, negative = inhibition, most hits filed as inhibitors; 310,000 tested, 3.5% active; AID 1490, 2009; active means well fitted inhibition curve with a large enough effect; inconclusive means small, poorly fitted or top-dose-only effect, or another doubt; inactive means no such curve, though single readings can be large or run the other way;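 further: the enzyme is Sfp with the accession as filed and its product quenches rhodamine fluorescence; potency means the concentration at half of the fitted maximal effect; 0% = enzyme reaction without inhibitor and -100% = no enzyme wells; top concentration of the series not given in the record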
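Buffer: 50 mM Hepes-Na pH 7.6, 10 mM MgCl2, 0.01% Nonidet P-40, 0.01% BSA. Enzyme 15 nM, pre-exposed to compound 15 min; substrates then added and fluorescence change tracked over 30 min.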
D2 potentiator: Beta-Arrestin HTS for Positive Allosteric Modulators of the Human D2 Dopamine Receptor: Potentiators; D(2) dopamine receptor (Homo sapiens), P14416; DiscoveRx D2 beta-arrestin cells, luminescence, 90 min; 100% = 57 uM dopamine signal; potentiation, % (concentration not given with the values); 360,000 tested, 0.23% active; AID 624464, 2012; active = potentiation of 50% or more; inconclusive = 30% to 50%; inactive = 30% or less;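 further: compound concentration not given in the record; tested on top of an EC20 dose of dopamine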
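PathHunter D2 cells, attached overnight at 37 deg C, received compound in DMSO plus dopamine at EC20 (50 nM final) for 90 min at 37 deg C. Beta-arrestin recruitment was read as luminescence after 1 h with detection reagent at ambient temperature.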
PINK1 expr mod: A Quantitative High throughput Screen to Identify Chemical Modulators of PINK1 Expression; PINK1 immunofluorescence, high-content cytometry, 24 h; Potency, µM (titrated, usually from 76.6 µM), for the others: at the highest dose activation (PINK1 increase), hits mostly activators; 410,000 tested, 0.2% active; AID 624263, 2012; active = well fitted activation curve with a large enough effect; inconclusive = small, poorly fitted or top-dose-only effect; inactive = flat fitted curve, though single readings scatter; cell line not stated here;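 further: potency means the concentration at half of the fitted maximal effect; % of control where 0% means no effect; nearly all actives have a fitted effect of over 65% in size; a mitochondrial uncoupler was the plate control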
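A stable cell line was treated with compounds at 5 concentrations for 24 hours, with CCCP as control. PINK1 levels and mitochondrial localization were measured by immunofluorescence with mitochondrial, cell and nuclear markers after fixation, read by laser-scanning cytometry.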
Six1-Eya2 inh: qHTS Assay for Inhibitors of the Six1/Eya2 Interaction. Homeobox protein SIX1 (Homo sapiens) + Protein phosphatase EYA2 (Homo sapiens), …. AlphaScreen GST-Six1/His-Eya2 binding, biochemical; active compounds read low; control for the full effect not named in the record. activity change, % (test concentration not listed). 360,000 tested, 0.56% active; in the data active = activity change below about -65%; inconclusive = about -30% to -65%; inactive = above about -30%; further: on the % scale 0 is the no-effect control and ±100 the full control effect
Target sequence (O00167 whole entry, looked up): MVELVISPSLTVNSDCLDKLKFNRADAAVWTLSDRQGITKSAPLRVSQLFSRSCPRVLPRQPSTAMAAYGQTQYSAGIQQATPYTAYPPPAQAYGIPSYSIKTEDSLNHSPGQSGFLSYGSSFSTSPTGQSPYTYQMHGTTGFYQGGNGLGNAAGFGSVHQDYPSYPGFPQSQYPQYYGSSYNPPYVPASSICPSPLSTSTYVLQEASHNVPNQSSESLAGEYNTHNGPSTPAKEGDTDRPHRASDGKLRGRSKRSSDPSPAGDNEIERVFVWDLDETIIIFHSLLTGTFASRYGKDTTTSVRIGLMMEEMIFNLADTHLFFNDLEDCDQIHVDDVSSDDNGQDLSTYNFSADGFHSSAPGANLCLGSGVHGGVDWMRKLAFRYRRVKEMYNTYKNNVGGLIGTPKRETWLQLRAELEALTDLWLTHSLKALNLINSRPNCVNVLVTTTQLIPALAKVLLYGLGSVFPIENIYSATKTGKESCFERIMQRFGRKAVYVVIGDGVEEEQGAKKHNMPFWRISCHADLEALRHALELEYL
Target sequence (Q15475 whole entry, looked up): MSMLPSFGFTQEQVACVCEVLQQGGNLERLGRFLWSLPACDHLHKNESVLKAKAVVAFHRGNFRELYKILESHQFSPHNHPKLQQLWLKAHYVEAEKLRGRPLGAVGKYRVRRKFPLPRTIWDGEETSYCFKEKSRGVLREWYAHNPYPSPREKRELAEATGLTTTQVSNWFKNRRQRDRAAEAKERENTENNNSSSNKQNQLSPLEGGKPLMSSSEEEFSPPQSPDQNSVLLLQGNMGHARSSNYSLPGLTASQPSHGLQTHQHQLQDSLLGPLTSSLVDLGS
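AlphaScreen with GST-Six1 and His-Eya2 (5X mix: 250 nM and 500 nM), glutathione donor and nickel acceptor beads; buffer 50 mM Tris pH 8.0, 300 mM NaCl, 1 mM TCEP; 1 h at 37 C in the dark.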
CtBP-E1A inh: qHTS Assay for Inhibitors of the CtBP/E1A Interaction; 340,000 tested, 0.49% active; AlphaScreen GST-E1A/His-CtBP binding, 1536-well; active compounds read low; control for the full effect not named in the record; activity change, % (no concentration beside the values); CtBP / adenovirus E1A interaction (AlphaScreen); AID 651724, 2012; in the data active means activity change below about -65%; inconclusive means about -30% to -65%; inactive means above about -30%; further: on the % scale 0 is the no-effect control and ±100 the full control effect
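Steps: dispense buffer (Tris pH 8.0, NaCl 300 mM, TCEP 1 mM, BSA, Tween 20); add 5X protein mix (GST-E1A, His-CtBP, 125 nM each); pin 23 nL compound; 2 h at 37 °C, dark; add 5X beads (50 ug/mL); 1 h; read.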
D2 agonist: Beta-Arrestin HTS for Positive Allosteric Modulators of the Human D2 Dopamine Receptor: Agonists | DiscoveRx PathHunter D2 beta-arrestin, luminescence, 90 min; 100% = 57 uM dopamine signal | activation, % (concentration not given with the values) | 360,000 tested, 0.084% active | AID 624465, 2012; in the data active = activation above about 40%; inconclusive = about 15% to 40%; inactive = below about 15%; further: compound concentration not given in the record; the text of the record calls up to 30% inactive
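Agonist mode: compounds alone added to overnight-plated D2 PathHunter cells for 90 min at 37 C, with 57 uM final dopamine (EC100) defining full response. Beta-arrestin recruitment detected by chemiluminescent reagent, read after 1 h at ambient temperature.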
TRPV1 potentiator: HTS Assay for Compounds that Act as Potentiators of the Vanilloid Receptor 1. potentiation, % at 8.33 µM. Transient receptor potential cation channel subfamily V member 1 (Homo sapiens), Q8NER1. 320,000 tested, 0.02% active. TRPV1-expressing cells, Fluo-8 calcium influx, capsaicin EC20 potentiation; host cell line not named in the record; control for the full effect not named in the record; active means potentiation above 80%; inconclusive means 30% to 80%; inactive means below 30%; further: 0% is about no effect
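Fluo-8 calcium influx in TRPV1-expressing cells, kinetic read (ex 480/em 520 nm). Compound added and read 3 min for agonist activity, followed by capsaicin at EC20 final and 2 min further read for enhancement.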
* = called active by the depositor; ? = inconclusive; nt = not tested or not shown; & = joins results of further samples; [ ] = dose if it differs, or a comment.

#	mol	Sfp PPTase inh	Six1-Eya2 inh	PINK1 expr mod	D2 agonist	D2 potentiator	CtBP-E1A inh	TRPV1 potentiator
1	O=C(NCc1ccco1)C1CC(c2cc(C(F)(F)F)cc(C(F)(F)F)c2)=NO1 (stereo not given)	18.7%	0.2	2.5%	-4.5	-7.4	nt	1.4
2	Cc1cc(C)n2nc(SCC(=O)N3CCOCC3)nc2n1	nt	-0.5	0.4%	6.4	-3.5	8.2	-8.6
3	COc1ccc(N(C(=O)CCC(=O)Nc2cc(C)on2)C(C(=O)NC2CCCC2)c2ccco2)cc1 (stereo not given)	18.6%	-1.9	4.2%	-0.4	-3.9	nt	2.3
4	CCS(=O)(=O)c1ccc2oc(SCC(=O)Nc3ccc(OC)c(OC)c3)nc2c1	3.4%	4.0	0.5%	-7.8	-8.2	0.4	5.9
5	COc1ccc(C(C)=O)cc1CN1C(=O)NC(CC(C)C)C1=O (stereo not given)	-1.0%	3.4	0.1%	-2.4	-2.8	10.4	6.0
6	CCC(C)n1c(SCC(=O)NCc2ccco2)nnc1-c1cccc(S(=O)(=O)N2CCOCC2)c1 (stereo not given)	8.1%	-9.6	3.5%	-1.0	-16.6	-1.3	4.7
7	O=C(COc1ccc(S(=O)(=O)N2CCCCC2)cc1)Nc1ccccc1F	-7.3%	-0.9	-0.1%	-0.5	10.4	0.4	-16.3
8	Cc1ccc(-c2noc(CNC(=O)c3ccc4c(c3)OCO4)n2)cc1	16.3%	0.9	1.6%	4.0	-3.6	-11.6	-6.1
9	CCOc1cccc(SCc2noc(C(=O)NCCOC)c2C(=O)O)c1	-0.7%	2.6	-0.5%	-1.7	-9.1	4.6	-9.2
10	O=C(CCC(=O)N(CC(=O)NC1CCCC1)Cc1cccs1)Nc1nccs1	7.8%	0.6	0.8%	-4.5	-18.2	3.6	0.4
11	COc1ccc(/C(O)=C2/C(=O)C(=O)N(CC3CCCO3)C2c2ccc(OC)c(OC)c2)cc1 (stereo not given)	6.4%	-1.5	-1.0%	-2.9	-1.6	6.7	10.7
12	O=C(NCCc1c[nH]c2ccccc12)/C(=C\c1cccs1)NC(=O)c1ccccc1	-1.8%	-5.7	0.8%	6.4	-3.6	-1.4	28.8
13	C=CCNC(=O)CCCC(=O)NCC=C	18.7%	2.3	-4.2%	0.2	0.3	5.6	6.5
14	CS/C(N)=N/S(=O)(=O)c1ccc(NC(C)=O)cc1	18.0%	-0.2	-0.1%	6.7	0.4	nt	-9.4
15	Cc1c(NC(=O)CSc2nnnn2-c2ccc(O)cc2)c(=O)n(-c2ccccc2)n1C	-4.6%	-1.5	nt	-1.0	-0.8	-5.8	-5.0
16	NC(=O)c1nsc(C(=O)N(CC(=O)NC2CCCC2)Cc2ccc3c(c2)OCO3)c1N	5.9%	11.2	-0.7%&-2.1%	3.3	-13.8	nt	-2.8
17	O=C(COC(=O)c1ccccc1-n1cnnn1)c1ccc(F)c(F)c1	nt	3.2	-0.2%	-0.1	-11.4	-1.2	2.3
18	CS(=O)(=O)N1CCN(CCN2C(=O)c3cccc4cccc(c34)C2=O)CC1	-9.3%	-2.9	1.7%	-1.5	-6.1	0.0	7.5
19	CCC(C)(C)NC(=O)C(c1cccc(OC)c1OC)N(C(=O)CCC(=O)Nc1cc(C)on1)c1ccc2c(c1)OCCO2 (stereo not given)	10.4%	-2.3	3.5%	-0.3	1.5	-16.8	-0.8
20	CCOC(=O)C1(Cc2cccc(OC)c2)CCCN(Cc2cnn(C)c2)C1 (stereo not given)	3.3%	3.3	-0.3%	-2.5	-15.1	9.9	7.2
21	COc1ccc(N2C(=O)CC(Sc3ncccc3C(=O)O)C2=O)cc1 (stereo not given)	11.7%	-1.6	nt	-3.5	0.6	8.0	5.2
22	Cc1cc2occ(CC(=O)N(C)CC(=O)Nc3ccccc3Br)c2cc1C	nt	-6.4	4.1%	0.5	21.4	-13.0	-4.3
23	CCOC(=O)c1c[nH]c(=O)c(Br)c1O	9.8%	1.6	1.4%	0.0	-1.1	19.5	?
24	Cc1cnn(-c2cc(N/N=C/c3cccc(F)c3)ncn2)c1	-6.6%	14.3	9.6%	3.6	-1.4	-3.5	8.3
25	O=C(NC1CCCCC1)[C@@H]1CC=C[C@@H]2CCN(C3CCCCC3)C(=O)[C@@H]21	nt	5.8	0.9%	-3.5	-5.3	-0.9	nt
26	COC(=O)CCCC1=CC2=CC(=O)C(C)(OC(=O)CCc3ccccc3)C(=O)C2=CO1 (stereo not given)	-22.2%&22.7%	-15.2	2.7%	2.4	8.4	-12.6	?
27	O=C(N/N=C/c1ccc(-c2cccc(C(F)(F)F)c2)o1)c1ccccc1Br	15.8%	-21.9	17.4%[38.3 µM]	-3.1	-19.0	-15.9	7.6
28	COc1cc(C(=O)Nc2cccc3c2CCCC3)cc(OC)c1OC	10.4%	4.1	0.3%	0.8	7.1	4.6	-0.2
29	O=[S@]1Oc2ccccc2-c2ccccc21	nt	-23.5	-1.7%	-0.6	20.1	1.6	nt
30	Cc1ccc(NC(=O)CN(C)C(=O)CNC(=O)c2sc3ccccc3c2Cl)cc1	nt	-5.0	-0.7%	-2.4	-5.5	10.1	5.1
31	CCOc1cc([C@@H]2C[C@H]3CN(c4ccccc4)C(=O)[C@]34CCCN24)ccc1OC	-7.5%	0.3	7.6%	-2.2	-8.9	-2.8	5.9
32	Cc1csc(SCC(=O)Nc2ccccc2)n1	14.6%	-5.7	-0.8%	1.4	-7.2	-9.7	3.9
33	CCOC(=O)C1(Cc2cccc(Cl)c2)CCCN(C(=O)C(C)(C)C)C1 (stereo not given)	4.1%	-2.6	1.3%	14.0	1.9	3.0	-8.2
34	COc1cc(NC(=O)c2ccccc2Cl)c(OC)cc1NC(=O)CN1CCCCC1	15.9%	0.8	1.1%	3.8	3.3	0.9	9.8
35	CCC(CC)NC(=O)c1ccccc1Oc1ccccc1	8.9%	3.3	5.1%	-2.4	-18.6	10.3	-20.0
36	NS(=O)(=O)c1ccc(CNC(=O)c2ccc(NS(=O)(=O)c3cccs3)cc2)cc1	nt	-17.1	0.0%	-1.3	1.4	4.2	nt
37	CCCOc1ccc(/C=N/NC(=O)CSc2ccccn2)cc1OC	-5.4%	-6.4	0.4%	1.1	-0.7	-11.8	nt
38	Cc1cc(Cl)ccc1Oc1nccc(N(C)C)c1C#N	-1.4%	10.2	nt	0.9	5.4	5.1	-12.5
39	CCCC(=O)Nc1nc2ccc3nc(C)sc3c2s1	7.8%	-9.1	-1.4%	-4.0	-6.3	-12.6	-14.0
40	COc1ccc(CCNC(=O)CCS(=O)(=O)c2ccc3c(c2)NC(=O)CO3)cc1OC	8.8%	1.0	-0.2%	-5.4	-6.5	5.7	5.2
41	COc1ccc(OC)c(NC(=O)CNC(=O)Cn2cnc3ccccc3c2=O)c1	18.6%	-0.5	-0.6%	0.6	-16.9	4.7	3.5
42	S=C(Nc1cccc(Cl)c1Cl)NC1CCN(Cc2ccccc2)CC1	10.3%	-14.7	12.8%	-3.4	-38.8	-7.8	-5.5
43	CC(=O)c1ccc(Nc2nc(C(N)COCc3ccccc3)cs2)cc1 (stereo not given)	nt	-16.3	3.7%	10.2	0.8	-10.5	nt
44	c1ccc(COc2cccc(-c3cc4nc(NCCOc5ccccc5)ccn4n3)c2)cc1	nt	3.4	3.8%	2.9	-14.1	7.5	nt
45	c1ccc(-c2nc(-n3ccnc3)nc(-n3ccnc3)n2)cc1	?	-17.1	nt	3.1	?	-9.9	?
46	Cc1ccc(-n2c(SCC(=O)Nc3cc(S(=O)(=O)N4CCOCC4)ccc3Cl)nc3ccccc3c2=O)cc1	5.3%	15.2	0.1%	-3.4	-21.0	6.2	-8.7
47	Cn1c(=O)c2c(ncn2CC(=O)N2CCN(S(=O)(=O)c3ccccc3)CC2)n(C)c1=O	5.0%	-8.5	?	-4.8	-12.9	-5.0	2.5
48	Cc1ccc(C(=O)Nc2ccccc2C(=O)O)cc1S(=O)(=O)Nc1ccccc1	20.6%	-2.2	1.3%	-2.5	15.0	nt	0.0

Compound profiles, as listed above. Order of values: Sfp PPTase inh	Six1-Eya2 inh	PINK1 expr mod	D2 agonist	D2 potentiator	CtBP-E1A inh	TRPV1 potentiator
COc1ccc(OC)c(NC(=O)CNC(=O)Cn2cnc3ccccc3c2=O)c1 is entered as 18.6%	-0.5	-0.6%	0.6	-16.9	4.7	3.5
Cn1c(=O)c2c(ncn2CC(=O)N2CCN(S(=O)(=O)c3ccccc3)CC2)n(C)c1=O is entered as 5.0%	-8.5	?	-4.8	-12.9	-5.0	2.5
CC(=O)c1ccc(Nc2nc(C(N)COCc3ccccc3)cs2)cc1 (stereo not given) is entered as nt	-16.3	3.7%	10.2	0.8	-10.5	nt

(next part)
#	mol	Sfp PPTase inh	Six1-Eya2 inh	PINK1 expr mod	D2 agonist	D2 potentiator	CtBP-E1A inh	TRPV1 potentiator
49	CCOC(=O)C1=C(N)OC(CCl)=C(C#N)C1c1ccsc1 (stereo not given)	5.9%	1.5	-0.1%	-6.3	-9.0	7.4	-5.6
50	O=C(OC1CC2CC1[C@H]1CCCCN1C2=O)N1CCN(c2ccccc2)CC1 (stereo not given in full)	nt	0.3	0.1%	nt	nt	-1.0	nt
51	CCc1ccc(Nc2nnc(SCC(=O)Nc3cccc(S(=O)(=O)NC4=NCCCCC4)c3)s2)cc1	4.1%	-10.2	2.1%	1.1	-6.8	-4.1	-4.0
52	CCOc1ccc(Nc2nc(Cc3nnc(SCC(=O)NCC4CCCO4)n3C)cs2)cc1 (stereo not given)	28.2µM*	-14.6	-2.5%	4.9	3.1	-7.4	-7.2
53	CC1(C)Cc2c(ccc3ccccc23)/C(=C/C#N)N1	-23.9%	?	-4.1%[38.3 µM]	1.1	-27.4	-25.1	0.7
54	Cc1ccsc1CNn1cnnc1SCc1ccc(Cl)cc1	9.6%	0.6	-1.1%	-2.8	-8.0	-0.9	-3.1
